High-throughput results (PubChem)
NPYLR7 ag – mosquito NPYLR7 agonism. AID 1259423. HEK293T NPYLR7/Galpha15, GCaMP6s calcium fluorescence. activation, % at 10 µM. hit rate 0.15% among 270,000; in the data active = activation above about 40%;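 also: 0% = vehicle and 100% = reference agonist at the receptor; some compounds past the cut are filed as inactive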
NPYLR7 ag max-min – also measured in NPYLR7 ag; calls as there; activation, %; measured here: Max-Min RFU normalised activation; some inactives read as strong as hits;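 span of the calcium signal over five minutes; 0% = vehicle and 100% = native peptide agonist; compound fluorescence can raise it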
Active calls of the source: *; & = joins results of further samples.

SMILES	NPYLR7 ag	NPYLR7 ag max-min
CCN1CCN(c2c(Cl)cccc2NC(=O)C2CCCO2)CC1 (stereo not drawn)	1	2
Cc1ccc(C(=O)c2c(N)c(C(=O)Nc3cc(C)cc(C)c3)c3ccccn23)cc1	-4	-10
N#Cc1cc2cc(Br)ccc2oc1=O	35	29
CC(=O)Nc1ccc(C(=O)Nc2ccc3c(c2)OC2(CCCCC2)O3)cc1	13	2
Nc1nc(=Nc2ccccc2C(F)(F)F)nc(N)n1C(=O)c1ccncc1	-2	-3
NS(=O)(=O)NCC1CCCN(c2nc(-c3cccc(Cl)c3)nc3c2CCCC3)C1 (stereo not drawn)	6	5
CC(C)(C)NN=Cc1cc(Br)cc(Br)c1O	6	7
Cc1cn2c3c(=O)n(CCN4CCOCC4)c(=O)n(C)c3nc2n1-c1ccccc1F	27	25
COc1ccccc1NC(=O)C1CC(=O)N(C)C(=Nc2ccccc2)S1 (stereo not drawn)	-3	-4
Cc1cc(C(=O)Nc2cc(C)nn2-c2nc3ccccc3s2)n(C)n1	-11	-15
CC(=O)O[C@@H](C)C(=O)N1CCC(c2nc(-c3ccccc3F)no2)CC1	5	4
O=C(Cc1ccc(-n2c(=O)[nH]c3ccsc3c2=O)cc1)NCc1ccccc1	-6	-5
O=C(c1ccsc1)N1CCCC(N2CCN(c3cccc(Cl)c3)CC2)C1 (stereo not drawn)	16&-5	9&-6
CCCCN1CC(c2nc3ccccc3n2CC(=O)N2CCOCC2)CC1=O (stereo not drawn)	3	1
O=C1c2ccccc2C(=O)c2cc([N+](=O)[O-])ccc21	11	9
COc1cccc(F)c1-c1cccc(-n2cnnc2)c1	1	-2
C=CCn1cc(CN2CCCC(c3nc(C(C)C)no3)C2)c(C)n1 (stereo not drawn)	-9	-9
C#CCOCC(O)CN(CCN1CCOCC1)Cc1ccc(OC)cc1 (stereo not drawn)	0	3
CSc1nc2ncc3c(=O)n(Cc4ccco4)ccc3n2n1	3	8
CCC(C(=O)NCC1COc2ccccc2O1)c1ccccc1 (stereo not drawn)	-11	-9
COCCNC(=O)c1nn(-c2cccc(F)c2)c(=O)n(Cc2ccccc2Cl)c1=O	-7	-6
Cc1nsc(NC(=O)N(C)CC2COc3ccccc3O2)n1 (stereo not drawn)	3	-3
CC(=O)Nc1ccc(CSc2nc3cc(S(=O)(=O)N4CCOCC4)ccc3n2CC2CCCO2)cc1 (stereo not drawn)	-9	-7
COc1ccc(-c2[nH]ncc2CN(C)C(C)c2nccs2)c(OC)c1 (stereo not drawn)	10&39	8&41
CC(=O)N(CN1C(=O)c2cccc([N+](=O)[O-])c2C1=O)c1ccc(C)cc1	0	-7

Additional entries follow:
SMILES	NPYLR7 ag	NPYLR7 ag max-min
O=C(O)c1nc(Cl)c(Cl)c(N2CCCCC2)c1Cl	0	-3
CSc1nc(C)cc(-n2cc(Br)c(=O)[nH]c2=O)n1	1	-2
Cc1cc(C)n2c(Nc3c(C)cccc3C)c(Cc3ccccc3)nc2n1	-4	-4
COc1ccc(-c2cc(C(=O)NC(C)C)n3nc(-c4ccc(Cl)cc4)cc3n2)cc1	3	0
CCc1ccc(CN2CCOCC(CN(C)C)C2)nc1 (stereo not drawn)	6	-2
CCn1ncc2c1NC(=O)CC2c1cnc(COC)nc1 (stereo not drawn)	1	-5
COc1ccc(OCc2ccc(-c3nc(C#N)c(N4CCN(C)CC4)o3)o2)cc1	1	0
O=C(CNCC1CCCO1)N(Cc1ccccc1)Cc1cccs1 (stereo not drawn)	-6	-15
Cc1c(-c2nccn2CCn2ccnc2)oc2ccccc12	4	-7
Fc1ccc2nc(SCc3cccnc3)[nH]c2c1	-4	-5
Cc1cn2c3c(=O)n(C)c(=O)n(C)c3nc2n1C(C)c1ccccc1 (stereo not drawn)	-2	15
Cc1cc(C)c2[nH]c(=O)c(CN3CCN4CCN(C)CC4C3)cc2c1 (stereo not drawn)	27	11
CCC(CO)N(Cc1ccco1)C(=O)Cc1ccc(F)cc1C (stereo not drawn)	-1	-1
CCOc1ccc(NC(=S)Nc2ccc(C)cn2)cc1	-3	-8
O=C(Nc1nnc(C2CC2)s1)c1cccnc1N1CCCCC1	-2	-2
COc1ccc2c(c1)-c1ccccc1S(=O)(=O)N2	-9	-16
O=[N+]([O-])c1ccc2sc(-c3nc4ccccc4s3)cc2c1	-6	-8
CC1CCC(N(C)C(=O)c2cccc(S(=O)(=O)N3CCCC3)c2)CC1 (stereo not drawn)	11	3
CC(C)Cn1c(N)c(-c2csc(C(C)C)n2)c(=O)n(C)c1=O	2	-2
CCCCC(=O)N1CCSC1c1cccc(F)c1 (stereo not drawn)	19	24
Cc1cccc(-n2nc([N+](=O)[O-])c(=NC3CCCCCC3)n2O)c1	-13	-20
COc1cn(CC(=O)Nc2cccc([N+](=O)[O-])c2)c(CSc2ncccn2)cc1=O	17	9
CCOC(=O)c1ccc(NC(=O)Nc2ccc(N3CCCC3)c(C(=O)NCCOC)c2)cc1	-2	2
CCOC(=O)C1(Cc2ccccc2)CCN(Cc2ccc3nsnc3c2)CC1	12	4
COc1ccc(-c2nc(N(CCCN3CCOCC3)CCC(=O)N3CCN(c4ccccc4F)CC3)c3ccccc3n2)cc1	1	7

Full records as entered above. Values in the order: NPYLR7 ag	NPYLR7 ag max-min
`COc1ccc(OCc2ccc(-c3nc(C#N)c(N4CCN(C)CC4)o3)o2)cc1` across the screens: 1	0
`COc1ccc(-c2cc(C(=O)NC(C)C)n3nc(-c4ccc(Cl)cc4)cc3n2)cc1` across the screens: 3	0
`O=[N+]([O-])c1ccc2sc(-c3nc4ccccc4s3)cc2c1` across the screens: -6	-8
`COc1ccc(-c2nc(N(CCCN3CCOCC3)CCC(=O)N3CCN(c4ccccc4F)CC3)c3ccccc3n2)cc1` across the screens: 1	7

Reformatted as comma-separated lines: three of the compounds above.
Structure,NPYLR7 ag,NPYLR7 ag max-min
CC(C)(C)NN=Cc1cc(Br)cc(Br)c1O,6,7
Cc1cn2c3c(=O)n(CCN4CCOCC4)c(=O)n(C)c3nc2n1-c1ccccc1F,27,25
COc1ccccc1NC(=O)C1CC(=O)N(C)C(=Nc2ccccc2)S1 (stereo not drawn),-3,-4

(cont.)
SMILES	NPYLR7 ag	NPYLR7 ag max-min
COCc1c(C(=O)Nc2ccc(NC(C)=O)cc2)nnn1-c1cc(C)cc(C)c1	3	2
CCc1nc(CSc2nnnn2C(C)C)cs1	8	4
Cc1cc(C)nc(SCCn2c(N3CCCC3)nc3c2c(=O)[nH]c(=O)n3C)n1	-1	53
CCN(CC)C(=O)Oc1ccc2c(ccn2Cc2ccccc2Cl)c1NC(=O)c1ccc(F)cc1F	1	-5
CC1CCCN(C(=O)CCCNC(=O)C(C)(C)C)C1 (stereo not drawn)	-1	-3
CCN(C)C(=O)c1nnc(N2CCCCC2)c2ccccc12	5	3
O=C(Nc1ccccc1F)c1cc(C2CC2)n(C2CCS(=O)(=O)C2)n1 (stereo not drawn)	3	0
O=[N+]([O-])c1nc(-c2ccc(F)cc2)n[nH]1	0	6
COCc1ccc(CN2CCCC(C(=O)Nc3ccc(-c4cscn4)cc3)C2)o1 (stereo not drawn)	9	7
Cc1nc2ccccc2n1CC(=O)N1CCN(C)CC1C (stereo not drawn)	21	22
O=C(CCC1CCN(C(=O)c2ccc(F)cc2Cl)CC1)NCc1cccnc1	3	-2
CCOC(=O)c1nc2ccccc2nc1N1CCN(C(=O)c2ccc(C#N)cc2)CC1	9	-2
COc1ccccc1NC(=O)N(Cc1ccc(OC)c(OS(=O)(=O)c2ccc(F)cc2)c1)Cc1ccco1	4	10
Cc1ccc(C(=O)Nc2c(F)cccc2Br)s1	7&-2	2&-5
Cc1cc(C(=O)N(Cc2ccco2)c2nc3ccc(F)cc3s2)no1	-3	-6
CCCN1CCC(C)(C(=O)Nc2cc(-c3ccccc3)nn2C)C1 (stereo not drawn)	1	-1
CN(CCC(=O)NC(=O)NC12CC3CC(CC(C3)C1)C2)CCc1ccccn1	-2	-2
CCN1CC(C(=O)Nc2ccc(-c3ncn[nH]3)cc2)CC1=O (stereo not drawn)	4	2
CC(=O)Nc1cccc(-c2cnn3cccnc23)c1	0	-3
Cc1c(C(=O)N2CCCCC2)c(C(F)(F)F)nn1C1CCCN(C(C)C)C1 (stereo not drawn)	12	4
Cc1nn(C)c(C)c1C(NC(=O)c1cc2cc(Cl)ccc2o1)C(F)(F)F (stereo not drawn)	2	-1
Cn1nc([N+](=O)[O-])nc1Sc1nc2ccccc2n1C	15	6
CC(=O)Oc1ccccc1C(=O)O	-13&5	-18&-13
C=CCN(C)Cc1cc2cc3c(cc2[nH]c1=O)CCC3	2	-3
O=C(c1ccc(N2CCC(NCc3cc(C(F)(F)F)ccc3F)CC2)cc1)N1CCCC(CO)C1 (stereo not drawn)	-2	-6

A different layout for some results above:
Under each structure – NPYLR7 ag	NPYLR7 ag max-min
C=CCN(C)Cc1cc2cc3c(cc2[nH]c1=O)CCC3
 : 2	-3
O=C(c1ccc(N2CCC(NCc3cc(C(F)(F)F)ccc3F)CC2)cc1)N1CCCC(CO)C1 (stereo not drawn)
 : -2	-6

4 of the compounds above, in markdown:
| mol | NPYLR7 ag | NPYLR7 ag max-min |
| --- | --- | --- |
| COCc1ccc(CN2CCCC(C(=O)Nc3ccc(-c4cscn4)cc3)C2)o1 (stereo not drawn) | 9 | 7 |
| CCOC(=O)c1nc2ccccc2nc1N1CCN(C(=O)c2ccc(C#N)cc2)CC1 | 9 | -2 |
| Cc1c(C(=O)N2CCCCC2)c(C(F)(F)F)nn1C1CCCN(C(C)C)C1 (stereo not drawn) | 12 | 4 |
| Cc1cc(C)nc(SCCn2c(N3CCCC3)nc3c2c(=O)[nH]c(=O)n3C)n1 | -1 | 53 |

(cont.)
SMILES	NPYLR7 ag	NPYLR7 ag max-min
Cc1ccc(OCCSc2nc3ccccc3n2CCOc2ccccc2)cc1C	-10	-21
O=C(COc1ccccc1)N1CCN(c2ccc(Nc3ccncc3)nn2)CC1	7	0
COCCn1c(=O)c2c(nc3n(-c4ccc(OC)cc4OC)c(C)c(C)n23)n(C)c1=O	0	6
CCOc1ccc(-c2nnc(NC(=O)Cc3cccc4ccccc34)o2)cc1	1	23
CC(C1CC1)n1nccc1NC(=O)Cc1ccc(Cl)cc1Cl (stereo not drawn)	4	6
CC(Sc1ccccn1)C(=O)N1CCn2c(C(N)=O)cnc2C1 (stereo not drawn)	2	9
Cc1cc(NC(=O)CN2CC(C)OC(C)C2)nc2c1c(=O)oc1ccccc12 (stereo not drawn)	-2	-3
OC(c1c(F)cncc1Br)C1CCCCC1 (stereo not drawn)	1&-2	0&-4
O=C(Cc1cccs1)NC1CCN(c2ccccc2C(=O)NCc2ccncc2)CC1	20	24
Cc1nc(S(=O)(=O)CCc2scnc2C)sc1C	3	-1
COc1cccc(N2C(=O)CSC2c2ccc(NC(=O)c3ccc(Br)cc3)cc2)c1 (stereo not drawn)	-10	1
Cc1ccc(C(=O)NCCn2c(C)cc3ccccc32)cc1	0	-2
O=C(CCl)Nc1ccc(OC(F)F)c(Cl)c1	0	-4
Cc1nc(CC(=O)N2CCOC(Cc3ccccc3)C2)c(C)s1 (stereo not drawn)	26	35
CCCc1c(C)nc2c(Br)cccc2c1SCC(=O)O	2	29
C=CCN(Cc1nc2ccccc2[nH]1)Cc1nc(-c2ccccc2)no1	2	0
Oc1ccc(Cl)cc1CN1CCCn2cccc2C1c1cccc(C(F)(F)F)c1 (stereo not drawn)	1	13
CCN(CC)C(=O)Oc1ccc2c(ccn2Cc2cc(C)cc(C)c2)c1NC(=O)c1ccno1	-3	-13
O=C(c1cc(COc2ccc3c(c2)CCCC3)on1)N1CCN(C2CCCC2)C(=O)C1	10	1
CNc1nc(Nc2ccc(F)cc2)c2nccnc2n1	1	-1

Some of the compounds tested; the hit share may differ from the screen's.
